Screening results from PubChem BioAssay.
Vaccinia stage = blocks a specific stage of Vaccinia orthopoxvirus infection, primary screen, cell-based, single point | Vaccinia-infected cells, mCherry/Venus stage reporter fluorescence; hits give low values; some inactives read as strong as hits | activity change (mCherry), % (concentration not given with the values) | actives 0.01% (n = 89,000) | AID 1053133, 2014;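 active means mCherry past -33% and 40 or more points under the early reporter, replicates agreeing; inconclusive means past -33% without that gap or agreement; tested in A549 cells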;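 further: scaled between vehicle wells and reference inhibitor wells; 23 nL library stock went into each well; one replicate is shown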
Vaccinia stage Venus = further read-out of Vaccinia stage, marked with its call; activity change (Venus), %; measured here: Venus reporter, other viral stage;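 negative = less Venus signal; first of two replicates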
* = called active by the depositor; ? = inconclusive; / = not tested or not shown; & = joins results of further samples.

SMILES | Vaccinia stage | Vaccinia stage Venus
COc1cccc(-c2ccc3n(c2=O)C[C@@H]2[C@@H](CO)[C@H](C(=O)N(C)C)[C@H]3N2C(=O)c2cnccn2)c1 | 6 | 4
C[C@@H]1CCCCO[C@H](CN(C)Cc2ccncc2)[C@@H](C)CN([C@@H](C)CO)C(=O)c2cc(NC(=O)c3ccncc3)ccc2O1 | 22 | 11
C[C@@H]1CN([C@H](C)CO)C(=O)c2cccc(NC(=O)c3ccncc3)c2O[C@H]1CN(C)C | 19 | 18
CO[C@@H]1CC[C@H]2CCN(C)C(=O)[C@@H](C)CN(C)C(=O)c3cccc(C#N)c3OC[C@H]1O2 | 41 | 41
COc1ccc2c3c(n(C)c2c1)[C@@H](CO)N(Cc1nccs1)CC31CN(C(C)=O)C1 | 10 | 7
Cc1noc(C)c1S(=O)(=O)Nc1ccc2c(c1)C(=O)N([C@@H](C)CO)C[C@@H](C)[C@@H](CN(C)Cc1ccccc1)O2 | -7 | -3
C[C@@H]1CCCCO[C@@H](CN(C)Cc2ccc(Cl)c(Cl)c2)[C@H](C)CN([C@@H](C)CO)C(=O)c2cc(NS(=O)(=O)c3ccc(Cl)cc3)ccc2O1 | ? | /
CCCN(C[C@@H]1[C@@H](c2ccccc2)[C@H](CO)N1C(C)=O)C(=O)NC(C)C | 16&7 | 13&3
C[C@@H]1CN([C@H](C)CO)C(=O)c2cc(C3=CCCC3)cnc2O[C@H]1CN(C)C(=O)c1ccccn1 | 14 | 7
COc1ccc2c3c([nH]c2c1)[C@@H](CO)N(C(=O)Nc1ccc(F)cc1)CC31CN(C(=O)c2ccccn2)C1 | 16 | -1
C[C@@H]1CN([C@H](C)CO)C(=O)c2cc(NS(=O)(=O)c3cn(C)cn3)ccc2O[C@@H](C)CCCCO[C@@H]1CN(C)C | 26 | 9
O=C(C[C@@H]1CC[C@@H]2[C@H](COC[C@H](O)CN2Cc2ccc(Oc3ccccc3)cc2)O1)N1CCCCC1 | ? | /
C[C@@H]1CN([C@H](C)CO)C(=O)c2cc(-c3cccc(C#N)c3)cnc2O[C@@H]1CN(C)Cc1cccnc1 | 20 | 2
CCCNC(=O)N1CC2(CN(S(=O)(=O)CC)C2)c2c([nH]c3cc(OC)ccc23)[C@H]1CO | 10 | 6
C[C@H]1CN([C@@H](C)CO)C(=O)c2cc(C#Cc3cccnc3)cnc2O[C@H]1CN(C)Cc1ccccc1 | 6 | 8
C[C@H]1CN([C@@H](C)CO)C(=O)c2cc(C#CCc3ccccc3)cnc2O[C@@H]1CN(C)C(=O)Cc1cccnc1 | 11 | 5
C[C@@H]1CN([C@@H](C)CO)C(=O)c2cc(NC(=O)Nc3ccc4c(c3)OCO4)ccc2O[C@@H](C)CCCCO[C@H]1CN(C)Cc1ccncc1 | -4 | -11
COCC(=O)N(C)C[C@H]1Oc2cc(C#Cc3ccccc3)ccc2S(=O)(=O)N([C@@H](C)CO)C[C@H]1C | -15 | -15
COc1ccc(NC(=O)Nc2ccc3c(c2)C(=O)N([C@@H](C)CO)C[C@H](C)[C@@H](CN(C)Cc2ccc(Oc4ccccc4)cc2)O3)cc1 | -1 | -8
O=C(CN1CCOCC1)N[C@H]1CC[C@@H](CCNC(=O)C2CCC2)O[C@@H]1CO | -9 | -7
C[C@H]1CN([C@@H](C)CO)C(=O)c2cc(C3=CCCC3)cnc2O[C@@H]1CN(C)Cc1cccc(F)c1 | -19 | -39
C[C@H]1CN([C@@H](C)CO)C(=O)c2cccc(NC(=O)Nc3cccc4ccccc34)c2O[C@H]1CN(C)C(=O)Nc1ccc(C(F)(F)F)cc1 | ? | /
CCCN1[C@@H]2c3ccc(C4=CCCC4)c(=O)n3C[C@@H]2[C@@H](CO)[C@@H]1C(=O)NCc1ccccn1 | 19 | 18
CNC[C@H]1Oc2ncc(-c3ccccc3C)cc2C(=O)N([C@@H](C)CO)C[C@@H]1C | -14 | -6
CCS(=O)(=O)N1CCCCN2[C@H](CO)[C@@H](c3ccc(-c4ccc(C#N)cc4)cc3)[C@@H]2C1 | 8 | 1
Cc1ccc(S(=O)(=O)Nc2ccc3c(c2)C(=O)N([C@@H](C)CO)C[C@@H](C)[C@@H](CN(C)C(=O)NC(C)C)O3)cc1 | 16 | 15
C[C@@H]1CN([C@H](C)CO)C(=O)c2cccc(NS(=O)(=O)c3ccc(F)cc3)c2O[C@H]1CN(C)S(=O)(=O)c1ccc(Cl)cc1 | 20 | 5
O=C(C[C@@H]1C=C[C@@H](NC(=O)C2CCOCC2)[C@@H](CO)O1)NCc1ccccc1Cl | 9 | 7
C[C@@H]1CCCCO[C@H](CN(C)S(=O)(=O)c2cccs2)[C@H](C)CN([C@H](C)CO)C(=O)c2cc(NC(=O)Nc3ccc(F)cc3)ccc2O1 | 14 | 19
C[C@@H]1CN([C@@H](C)CO)C(=O)c2c(c3ccccc3n2C)-c2ccccc2CO[C@H]1CN(C)CC1CC1 | ? | /
CCC(=O)Nc1ccc2c(c1)OC[C@H](C)N(C(=O)c1ccc(F)cc1)C[C@H](C)[C@H](OC)CN(C)C2=O | 3 | 4
O=C(C[C@@H]1CC[C@@H]2[C@H](COC[C@@H](O)CN2C(=O)c2ccccc2F)O1)NCc1ccc(F)cc1 | 12 | 6
O=C(C[C@H]1C=C[C@H](NC(=O)Nc2ccc(F)cc2)[C@H](CO)O1)NCc1cccc(F)c1 | -3 | 4
Cc1noc(C)c1S(=O)(=O)Nc1ccc2c(c1)C(=O)N([C@H](C)CO)C[C@@H](C)[C@@H](CN(C)C(=O)Nc1ccccc1)OCCCC[C@@H](C)O2 | -18 | -17
C[C@@H]1CN([C@H](C)CO)C(=O)Cc2cc(NS(=O)(=O)c3ccc(F)cc3)ccc2O[C@@H]1CN(C)Cc1ccc(C(F)(F)F)cc1 | ? | /
CC(C)C#Cc1ccc([C@@H]2[C@@H](CO)N(C(=O)c3ccccn3)[C@H]2C#N)cc1 | 5 | 0

Ten successive records already listed:
SMILES | Vaccinia stage | Vaccinia stage Venus
CNC[C@H]1Oc2ncc(-c3ccccc3C)cc2C(=O)N([C@@H](C)CO)C[C@@H]1C | -14 | -6
CCS(=O)(=O)N1CCCCN2[C@H](CO)[C@@H](c3ccc(-c4ccc(C#N)cc4)cc3)[C@@H]2C1 | 8 | 1
Cc1ccc(S(=O)(=O)Nc2ccc3c(c2)C(=O)N([C@@H](C)CO)C[C@@H](C)[C@@H](CN(C)C(=O)NC(C)C)O3)cc1 | 16 | 15
C[C@@H]1CN([C@H](C)CO)C(=O)c2cccc(NS(=O)(=O)c3ccc(F)cc3)c2O[C@H]1CN(C)S(=O)(=O)c1ccc(Cl)cc1 | 20 | 5
O=C(C[C@@H]1C=C[C@@H](NC(=O)C2CCOCC2)[C@@H](CO)O1)NCc1ccccc1Cl | 9 | 7
C[C@@H]1CCCCO[C@H](CN(C)S(=O)(=O)c2cccs2)[C@H](C)CN([C@H](C)CO)C(=O)c2cc(NC(=O)Nc3ccc(F)cc3)ccc2O1 | 14 | 19
C[C@@H]1CN([C@@H](C)CO)C(=O)c2c(c3ccccc3n2C)-c2ccccc2CO[C@H]1CN(C)CC1CC1 | ? | /
CCC(=O)Nc1ccc2c(c1)OC[C@H](C)N(C(=O)c1ccc(F)cc1)C[C@H](C)[C@H](OC)CN(C)C2=O | 3 | 4
O=C(C[C@@H]1CC[C@@H]2[C@H](COC[C@@H](O)CN2C(=O)c2ccccc2F)O1)NCc1ccc(F)cc1 | 12 | 6
O=C(C[C@H]1C=C[C@H](NC(=O)Nc2ccc(F)cc2)[C@H](CO)O1)NCc1cccc(F)c1 | -3 | 4

(cont.)
SMILES | Vaccinia stage | Vaccinia stage Venus
CCC(=O)N1C[C@H]2[C@@H](c3ccccc31)[C@H](CO)N2C(=O)Nc1ccccc1 | 8 | 8
C[C@H](CO)N1C[C@H](C)[C@@H](CN(C)C(=O)Nc2ccc(C(F)(F)F)cc2)Oc2ccc(NS(=O)(=O)c3cn(C)cn3)cc2CC1=O | 9 | 5
C[C@@H]1CCCCO[C@@H](CN(C)CC2CCCCC2)[C@@H](C)CN([C@@H](C)CO)C(=O)c2cc(N(C)C)ccc2O1 | -6 | -3
COc1ccc(NC(=O)Nc2cccc3c2O[C@@H](CN(C)S(=O)(=O)c2ccccc2)[C@@H](C)CN([C@@H](C)CO)C3=O)cc1 | -17 | -14
O=C(NCc1ccncn1)[C@@H]1[C@@H](CO)[C@@H]2Cn3c(ccc(-c4ccncc4)c3=O)[C@@H]2N1CC1CC1 | 13 | 12
C[C@H]1CN([C@@H](C)CO)S(=O)(=O)c2ccc(/C=C/c3ccccc3)cc2O[C@@H]1CN(C)Cc1ccccc1 | ? | /
N#C[C@@H]1[C@@H](c2ccc(-c3cccc(F)c3)cc2)[C@H](CO)N1c1nc(-c2ccccc2)cs1 | -8 | -3
C[C@H](CO)N1C[C@H](C)[C@@H](CN(C)Cc2ccc(C(=O)O)cc2)Oc2c(NC(=O)c3cnccn3)cccc2C1=O | 7 | 16
COc1ccc(NC(=O)N(C)C[C@H]2OCCCC[C@@H](C)Oc3ccc(NC(=O)CCC(F)(F)F)cc3C(=O)N([C@H](C)CO)C[C@H]2C)cc1 | 12 | 3
O=C(c1ccccn1)N1C[C@H]2[C@@H](c3ccccc31)[C@@H](CO)N2C(=O)C1CCCC1 | 10 | 9
CCCC(=O)N1CC2(C1)CN(Cc1cccnc1)[C@@H](CO)c1[nH]c3cc(OC)ccc3c12 | 19 | 15
C[C@@H]1CCCCO[C@H](CN(C)CC2CCCCC2)[C@@H](C)CN([C@H](C)CO)C(=O)c2cc(NS(C)(=O)=O)ccc2O1 | 8 | 3
C[C@H]1CN([C@@H](C)CO)S(=O)(=O)c2ccc(C#Cc3ccccc3)cc2O[C@@H]1CN(C)C(=O)C1CC1 | ? | /
CCCC(=O)Nc1ccc2c(c1)C(=O)N(C)[C@@H]1CC[C@@H](CC(=O)NCCCN(C)C)O[C@@H]1CO2 | 1 | 9
O=C(Nc1ccc(F)cc1)N[C@@H]1C[C@@H]2O[C@H](CO)CC[C@@H]2O[C@@H]1CCc1ccc(C2=CCCC2)cc1 | 10 | 4
O=C(C[C@@H]1CC[C@H]2[C@@H](COC[C@H](O)CN2CCC(F)(F)F)O1)NCc1ccc(Oc2ccccc2)cc1 | -15 | 4
Cc1ccccc1S(=O)(=O)N1CCCCN2[C@H](CO)[C@@H](c3ccc(-c4ccccc4)cc3)[C@H]2C1 | -22 | -17
O=C(c1ccccc1F)N1CC[C@H]2[C@H](CO)Nc3ccc(C#Cc4ccccc4)cc3[C@H]21 | -25 | -13
C[C@@H]1CCCCO[C@H](CN(C)C(=O)Nc2ccc(F)cc2)[C@@H](C)CN([C@H](C)CO)C(=O)c2cc(NC(=O)Cc3ccccc3)ccc2O1 | -5 | -1
CCS(=O)(=O)N1CC(=O)N2[C@@H](CO)[C@H](c3ccc(-c4cccc(F)c4)cc3)[C@@H]2C1 | 10 | 4
C[C@@H]1CN([C@@H](C)CO)C(=O)c2c(c3ccccc3n2C)-c2ccccc2CO[C@H]1CN(C)S(=O)(=O)c1ccc(F)cc1 | ? | /
C[C@@H]1CN([C@@H](C)CO)C(=O)CCCn2nncc2CO[C@H]1CN(C)C(=O)c1ccc2ccn(C)c2c1 | 6&1 | 0&4
CC(C)NC(=O)Nc1ccc2c(c1)C(=O)N([C@H](C)CO)C[C@@H](C)[C@@H](CN(C)S(=O)(=O)c1ccccc1)OCCCC[C@H](C)O2 | 20 | 6
C[C@@H]1CN([C@@H](C)CO)S(=O)(=O)c2ccc(C#CCC3CCCC3)cc2O[C@@H]1CN(C)C | ? | /
CCCNC(=O)N1CC2(C1)[C@@H](c1ccccc1)[C@@H](CO)N2Cc1cccc(Cl)c1 | -24 | -12
Cc1ccccc1-c1ccc(C2[C@@H]3CN(C(=O)Cc4ccccc4)C[C@H]2N3)cc1 (stereo partly drawn) | ? | 8
CO[C@H]1CN(C)C(=O)c2cc(NS(=O)(=O)c3ccccc3)ccc2OC[C@H](C)NC[C@@H]1C | 30 | 23
CCC(=O)Nc1ccc2c(c1)C(=O)N(C)C[C@H](OC)[C@@H](C)CN(Cc1ccccn1)[C@H](C)CO2 | 2 | 2
CCCNC(=O)N1[C@H](CO)[C@H]2c3ccccc3N(C(=O)Nc3cccc(F)c3)C[C@H]21 | 7 | 3
CCC(=O)N(C)C[C@H]1Oc2ncc(-c3ccccc3C)cc2C(=O)N([C@@H](C)CO)C[C@H]1C | 20 | 7
C[C@@H]1CCCCO[C@H](CN(C)CC2CC2)[C@H](C)CN([C@@H](C)CO)C(=O)c2cc(NS(=O)(=O)c3ccc(Cl)cc3)ccc2O1 | ? | /
C[C@H]1CN([C@@H](C)CO)C(=O)c2cc(-c3cccc(C#N)c3)cnc2O[C@@H]1CN(C)Cc1cccnc1 | 12 | 1
Cc1noc(C)c1S(=O)(=O)N(C)C[C@H]1Oc2ccc(NS(=O)(=O)c3ccc(F)cc3)cc2CC(=O)N([C@@H](C)CO)C[C@@H]1C | 8 | -1
O=C(C[C@H]1CC[C@@H](NC(=O)Nc2ccc3c(c2)OCO3)[C@H](CO)O1)NCc1ccccc1 | 16 | 23
C[C@@H]1CN([C@@H](C)CO)S(=O)(=O)c2ccc(C3=CCCCC3)cc2O[C@H]1CN(C)S(=O)(=O)c1ccc(F)cc1 | ? | /
Cc1noc(C)c1NC(=O)Nc1ccc2c(c1)CC(=O)N([C@@H](C)CO)C[C@H](C)[C@@H](CN(C)C(=O)Nc1ccc3c(c1)OCO3)O2 | 5 | 7
CC(C)CC#Cc1cnc2c(c1)C(=O)N([C@@H](C)CO)C[C@@H](C)[C@@H](CN(C)C(=O)C1CCCCC1)O2 | -22 | -20
CCC(=O)N1C[C@@H](C)[C@H](OC)CN(C)C(=O)c2cc(NC(=O)Nc3cccc(F)c3)ccc2OC[C@@H]1C | 7 | 0
C[C@@H]1CN([C@@H](C)CO)C(=O)c2cc(C#CC3CCCC3)cnc2O[C@H]1CN(C)S(C)(=O)=O | -7 | -8
C[C@H](CO)N1C[C@H](C)[C@@H](CN(C)C)Oc2cc(C#Cc3ccncc3)ccc2S1(=O)=O | 0 | -2

The list is partial; rates above refer to the full screens.
